Cruzain inh noDet: blocks cruzain activity in detergent-free assay | AID 1476 | purified cruzain, Z-FR-AMC fluorescence, no detergent | hit rate 2.3% among 200,000 | Potency, µM, without a hit: max response, negative = inhibition, most hits filed as inhibitors | P25779; active = well fitted curve in the direction sought with a large enough effect; inconclusive = small, poorly fitted or top-dose-only effect, or another doubt; inactive = no such curve, though single readings can be large; an effect the other way counts as inactive or inconclusive;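 also: plate controls were enzyme without inhibitor for no effect and buffer without enzyme for full effect; nearly all actives have a fitted effect of over 40% in size; top concentration of the series not given in the record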
Target sequence (P25779 123-467 limits assumed): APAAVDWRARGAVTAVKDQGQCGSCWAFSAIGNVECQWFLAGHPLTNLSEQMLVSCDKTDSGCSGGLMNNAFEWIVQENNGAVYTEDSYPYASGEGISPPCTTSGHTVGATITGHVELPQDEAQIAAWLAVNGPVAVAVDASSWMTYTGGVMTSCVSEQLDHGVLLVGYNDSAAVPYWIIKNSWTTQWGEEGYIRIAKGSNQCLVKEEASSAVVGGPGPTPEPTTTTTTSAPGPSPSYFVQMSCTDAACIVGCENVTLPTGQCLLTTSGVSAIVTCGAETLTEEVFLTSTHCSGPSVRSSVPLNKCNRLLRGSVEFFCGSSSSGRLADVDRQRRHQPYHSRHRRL
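Purified cruzain at 1.5 nM, pre-incubated 15 min with compound at room temperature in 100 mM sodium acetate pH 5.5, 5 mM DTT, 0.00005% Triton X-100. Reaction started with 2 uM Z-FR-AMC; AMC fluorescence increase over 60 s gives rate.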
2A StopGo: FMDV 2A StopGo reporter, luciferase signal; AID 1159524; human cells with a luciferase reporter of 2A StopGo recoding; control for the full effect not named in the record; hit rate 1.2% among 410,000; Potency, µM (doses to about 57.9 µM), inactives show at the top dose signal change, negative = less light; active = well fitted falling curve with a large enough effect; inconclusive = small, poorly fitted or top-dose-only effect; inactive = no such curve, though single readings can be large or run the other way; tested in HEK293T cells; also: % is scaled to controls: 0 for no effect and ±100 for the full control effect; nearly all actives have a fitted effect of over 45% in size; luciferase light after 4 h
Lassa entry inh: blocks Lassa virus binding to or entry into cells | Lassa virus pseudotype entry inhibition, cell reporter; control for the full effect not named in the record | Potency, µM (top dose mostly 37.9 µM), for the others: at the top dose activity change, negative = inhibition, actives largely listed as inhibitors | hit rate 1.2% among 300,000 | AID 540256; active means well fitted inhibition curve with a large enough effect; inconclusive means small, poorly fitted or top-dose-only effect, or effect the other way; inactive means flat fitted curve, though single readings scatter; tested in HEK293 cells; also: % is scaled to controls: 0 for no effect and ±100 for the full control effect; nearly all actives have a fitted effect of over 50% in size; luciferase read-out
MARV entry inh: blocks Marburg virus binding to or entry into cells | Marburg virus pseudotyped entry inhibition, cell reporter; control for the full effect not named in the record; about a third of the inactives were read at about 46 µM | Potency, µM (doses to about 37.8 µM), for the others: at the top dose activity change, negative = inhibition, actives largely listed as inhibitors | hit rate 1.8% among 300,000 | AID 540276; active = well fitted inhibition curve with a large enough effect; inconclusive = small, poorly fitted or top-dose-only effect, or effect the other way; inactive = flat fitted curve, though single readings scatter; tested in HEK293 cells; about a fifth of its hits are not listed in these tables; also: % is scaled to controls: 0 for no effect and ±100 for the full control effect; luciferase read-out
Cruzain inh Det: inhibitors of Trypanosoma cruzi cruzain with detergent; hit rate 0.43% among 200,000; purified cruzain, Z-FR-AMC fluorescence, 0.01% Triton; AID 1478; Potency, µM, inactives show max response, negative = inhibition, actives largely listed as inhibitors; active = well fitted curve in the direction sought with a large enough effect; inconclusive = small, poorly fitted or top-dose-only effect, or another doubt; inactive = no such curve, though single readings can be large; an effect the other way counts as inactive or inconclusive;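 also: plate controls were neutral wells for no effect and buffer without enzyme for full effect; nearly all actives have a fitted effect of over 40% in size; top concentration of the series not given in the record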
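15 min RT preincubation of 1.5 nM cruzain with compound, then 2 uM Z-FR-AMC added; kinetic AMC fluorescence, 60 s delta. Triton X-100 0.01%, pH 5.5.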
NS1 inh: inhibitors of influenza NS1 protein function; S. cerevisiae slowed by influenza A NS1, growth recovery by OD600; Potency, µM (highest dose often 46.1 µM), for the others: at the top dose activity, positive = more growth; hit rate 0.4% among 270,000; AID 2326; also: actives are rising curves; nearly all actives have a fitted effect of over 50% in size
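Growth recovery, yeast-based: influenza A NS1 expressed in S. cerevisiae causes slow growth, and suppressors are detected by OD600. The parent strain without NS1 is used as positive control.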
SARS PLpro yeast: blocks SARS-CoV papain-like protease in a yeast assay; S. cerevisiae expressing SARS-CoV PLpro, growth rescue; control for the full effect not named in the record; Potency, µM (titrated, usually from 32.9 µM), without a hit: top-dose activity, positive = growth rescue; hit rate 0.19% among 330,000; AID 485353; also: 0% is about no effect; nearly all actives have a fitted effect of over 55% in size; growth read by luminescence after 48 h
RE007 growth inh: less growth of the S. pombe RE007 Vpr strain. hit rate 0.21% among 360,000. Potency, µM (series often up to 92.2 µM), for inactives: at the top dose activity change, negative = less growth. S. pombe RE007 Vpr strain, BacTiter-Glo ATP luminescence, 24 h; control for the full effect not named in the record; active = well fitted falling curve with a large enough effect; inconclusive = small, poorly fitted or top-dose-only effect; inactive = no such curve, though single readings can be large or run the other way;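 also: % is scaled to controls: 0 for no effect and ±100 for the full control effect; nearly all actives have a fitted effect of over 50% in size; the assay follows cell death caused by Vpr and the record does not say whether a fall means rescue or toxicity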
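Fission yeast RE007 carrying one integrated HIV-1 vpr copy, seeded at OD 0.01 in PMG+AL medium with 23 nL pinned compound. Grown 24 h at 30 degrees; viability read by BacTiter-Glo luminescence after 5 min.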
Starred values were filed as active, the others as inactive; u = inconclusive; x = not tested or not shown; & = joins results of further samples; [ ] = another dose, or the depositor's remark. Unless noted, calls follow the shape of the dose curve; as a rule, active means well fitted rising curve with a large enough effect; inconclusive means small, poorly fitted or top-dose-only effect; inactive means no such curve, though single readings can be large or run the other way. Potency is read from the fitted curve at half-maximal effect.

SMILES,Cruzain inh noDet,2A StopGo,Lassa entry inh,MARV entry inh,Cruzain inh Det,NS1 inh,SARS PLpro yeast,RE007 growth inh
C#CC(CC)(CC)NC(=O)/C=C/C(=O)O,x,5%,-6%,8%,x,1%,0%,-1%
c1coc(CNCc2cccs2)c1,9%,-6%,-11%,u,-1.0%,14%,14%,-19%
C/C(=N\NC(=O)Cn1ccc(C(F)(F)F)n1)c1ccco1,x,7%,18%,-1%[46.1 µM],x,x,3%,7%
CC(=O)Nc1ccc(S(=O)(=O)N2CCC(N3CCCCCC3)CC2)cc1,x,-11%,x,x,x,4%,-6%,1%
COc1ccc(S(=O)(=O)N2CCN(CCCOc3ccc(F)cc3)CC2)cc1OC,x,u,u,10µM*,x,-6%,14%,14%
CN(C(=O)COC(=O)CCC(=O)c1ccc(Cl)cc1)c1c(N)n(Cc2ccccc2)c(=O)[nH]c1=O,x,-16%,3%,u,x,x,1%,-2%
COc1ccc2c(c1)c1c(c(=O)n(-c3ccc(OC)c(OC)c3)c(=O)n1Cc1ccc(C)cc1)n2C,-13%,-1%,-7%[46.1 µM],x,-3.0%,x,x,x
COCc1cc(C)nc2sc3c(c12)NC(c1ccc(O)c(OC)c1)N(c1ccccc1)C3=O (configuration not stated),21%,-14%,-24%[46.1 µM],4%[46.1 µM],-12%,x,x,x
Cc1ccc(C(=O)Nc2ccc3c(c2)C(=O)NC3=O)cc1,x,17%,x,x,x,-17%,-4%,4%
COc1ccc(C(O)(CC(C)C)C(CN2CCOCC2)c2ccccc2)cc1 (configuration not stated),x,u,-16%[46.1 µM],u,x,-4%,-2%,9%
O=C(COc1ccc2ccccc2c1)N1CCN(Cc2c[nH]c3ccccc23)CC1,3%,u,16%,u,-1.0%,u,0%,-3%
N/C(=N\OC(=O)CC1CCCCC1)c1ccc(Br)cc1,x,-2%,-13%,1%,x,-8%,-3%,1%
COc1ccc(NC(=O)CSc2nnc3ccc(-c4cccnc4)nn23)cc1OC,x,2%,15%,7%,x,x,1%,32%
Cc1ccc(CC(=O)Nc2ccc(OC(F)F)c(Cl)c2)cc1C,-6%,-14%,-12%,-28%[46.1 µM],-8.1%,-20%,-14%,-14%
Cc1c(C)n(O)c2ccc3nonc3c12,x,-14%,u,5%[46.1 µM],x,-6%,-20%,3%
C=CCNc1nnc(SCC(=O)Nc2ccccc2OC)c2ccccc12,x,u,u,-11%[46.1 µM],x,0%,2%,-11%
Cc1cccc(Nc2nc(NCC3CCCO3)nc(N)c2[N+](=O)[O-])c1 (configuration not stated),22%,-14%,3%,3%,-3.2%,-5%,1%,12%
COc1cccc(-c2nc3c(c(SCC(=O)N4CCOCC4)n2)Cc2c(CO)cnc(C)c2O3)c1,x,-8%,x,x,x,5%,-1%,-5%
O=c1cc(CN2CCN(Cc3ccccc3)CC2)c2cc3c(cc2o1)CCC3,x,-21%,u,-19%,x,-3%,-1%,-12%
N#C/C(=C/c1ccco1)c1nc2ccccc2s1,5%,-8%,u,u,-16%,6%,-29%,-28%
COc1ccccc1C(CNc1ncccc1[N+](=O)[O-])N(C)C (configuration not stated),x,-21%,28%,-14%[46.1 µM],x,16%,u,-3%
CCCN(C(=O)Cn1c(C(F)(F)F)nc2ccccc21)C1CCS(=O)(=O)C1 (configuration not stated),x,-12%,0%,-6%,x,x,1%,-13%
CCOC(=O)[C@H]1NN=C(C(=O)OC)[C@@H]1c1ccccc1,-2%,-9%,u,-3%,5.6%,15%,-6%,7%
O=C(Nc1ccccc1)Nc1ccccc1C(=O)NCCCN1CCOCC1,x,-3%,x,x,x,6%,0%,-20%
CC(CNC1CCCCC1)OC(=O)c1ccc([N+](=O)[O-])cc1 (configuration not stated),x,-6%,5%[46.1 µM],15%,x,x,x,-3%
Cc1cc(C)n2nc(S(=O)(=O)Nc3c(Cl)cccc3Cl)nc2n1,x,5%,-13%,0%[46.1 µM],x,x,0%,5%
CSCCC(NS(=O)(=O)c1ccc(Cl)c(Cl)c1)C(=O)O (configuration not stated),x,1%,-3%[46.1 µM],u,x,0%,-6%,11%
CCC1SC(CC)C(=O)N(CC(=O)NCc2ccc(F)cc2)C1=O (configuration not stated),x,-4%,-2%,-9%,x,x,-4%,1%
CCOC(=O)c1ccc(N2C(=O)C(C)=C(C)C2=O)cc1,-9%,21%,-4%,-3%,-3.5%,-12%,2%,-16%
CC(=O)C(C)Sc1nnc(-c2ccccc2F)n1C1CC1 (configuration not stated),x,6%,-7%,7%[46.1 µM],x,9%,2%,-3%
CC(C)N(Cc1ccccc1)C(=O)c1cnc2n(c1=O)CCS2,-8%,-2%,x,x,2.4%,-5%,-5%,-10%
COc1ccc(Cl)cc1C(=O)OCC(=O)Nc1sccc1C(N)=O,x,-26%,12%,-16%,x,x,17%,-3%
Cc1ccc(C(=O)NCCOc2cccc3cccnc23)cc1Cl,x,-26%,-13%,u,x,-1%,1%,0%
CCCCCN(C(=O)CN1CCC(Cc2ccccc2)CC1)c1c(N)n(CCCC)c(=O)[nH]c1=O,x,-16%,u,10µM*,x,x,-2%,8%
COc1cc(C=O)c(Cl)cc1OCC(N)=O,x,-22%,x,x,x,6%,0%,6%
CC(=O)c1cc2c(cc1NC(=O)c1c(-c3ccccc3)noc1C)OCO2,-5%,-12%,12%,4%,-0.6%,4%,2%,0%
COc1ccc(CCNC(=O)COC(=O)/C=C/c2ccc3c(c2)OCO3)cc1,x,19%,u,u,x,x,-5%,-2%
CCOc1ccc(N2C(=O)Nc3ccccc3C2(O)C(=O)NCc2ccc(F)cc2)cc1 (configuration not stated),x,-9%,u,-25%,x,x,2%,-5%
CC1CN(S(=O)(=O)c2ccc(C(=O)Nc3ccc(S(=O)(=O)Nc4ncccn4)cc3)cc2)CC(C)O1 (configuration not stated),1%,0%,-2%,-4%,-2.3%,19%,7%,10%
Cc1ccc(NS(=O)(=O)c2c(C)[nH]c(C)c2C(=O)N2CCCCC2)cc1C,x,39%[activator],-6%[46.1 µM],u,x,2%,6%,16%
COc1ccccc1OCC(=O)N1CCCC(N(C)Cc2ccccc2)C1 (configuration not stated),x,-8%,x,x,x,5%,3%,-4%
O=Cc1cccn1Cc1ccccc1[N+](=O)[O-],-17%,-1%,u,3%,1.4%,21%,-12%,-15%
CCCCNS(=O)(=O)c1ccc2nc(SCC(=O)Nc3ccccc3)[nH]c2c1,2%,25%,-1%,-8%,-5.8%,-12%,4%,3%
O=C1c2ccccc2C(=O)N1Cc1ccco1,2%,1%,25%,10%,-0.6%,-1%[9.22 µM],1%,23%
CCc1ccccc1NC(=O)C(NS(=O)(=O)c1ccc2c(c1)CCC(=O)N2)c1ccccc1 (configuration not stated),-22%,-14%,2%[46.1 µM],-5%[46.1 µM],1.6%,x,x,x
CS(=O)(=O)N(CC(=O)N1CCCCC1)c1cccc(F)c1,x,37%[activator],7%[46.1 µM],-19%[46.1 µM],x,1%,0%,6%
CCOC(=O)C1=C(COC(=O)c2ccc(Br)o2)NC(=O)NC1C (configuration not stated),x,-16%,-6%,6%,x,1%,5%,2%
COC(=O)c1c(NC(C)=O)sc(C(=O)N2CCOCC2)c1C,x,4%,9%,16%[46.1 µM],x,0%,3%,12%
CCCNC(=O)CN1C(=O)COc2ccc(S(=O)(=O)N3CCCCCC3)cc21,-16%,-27%&1%,12%[46.1 µM],2%&2%[46.1 µM],3.1%,0%,0%,-4%
COCCn1c(=NC(=O)c2cc(-c3cccs3)nc3ccccc23)sc2cc(S(N)(=O)=O)ccc21,-23%,-16%,u,9.2µM*,-5.9%,11µM*,5%,-6%

Further compounds
SMILES,Cruzain inh noDet,2A StopGo,Lassa entry inh,MARV entry inh,Cruzain inh Det,NS1 inh,SARS PLpro yeast,RE007 growth inh
O=C(CCCCCNC(=O)c1ccccc1Cl)N/N=C/c1ccco1,x,4%,22%,20%[46.1 µM],x,x,-4%,-5%
CCSc1nc(COC(=O)NC)c(COC(=O)NC)n1C,x,-14%,-18%,u,x,x,x,u
CCOc1ccccc1-n1c(=O)c2ccccc2c2ccccc2c1=O,6%,u,-3%,4%,-5.4%,-5%,-9%,18%
CC(C)NC(=S)NCc1cccs1,x,-20%,x,x,x,-4%,1%,-5%
COc1ccc(CCNC(=O)c2cccc(-n3cnc4cccnc43)c2C)cc1OC,-5%,-7%,2%[46.1 µM],x,4.2%,x,x,x
O=C(NC1CCCCC1)c1ccc(CSc2nc3ccncc3n2Cc2ccc(F)cc2)cc1,27%,u,x,-26%[46.1 µM],-2.9%,x,x,x
CCCCOc1ccc(C(=O)NCc2nnnn2-c2ccc(C)c(C)c2)cc1,8%,-1%,-25%[46.1 µM],x,-2.6%,x,x,x
Cc1ccc(-c2nc3ccccc3n3c(C)nnc23)cc1,0%,x,x,x,-0.4%,-10%,0%,x
Nc1c([N+](=O)[O-])c(=O)sc2ccccc12,x,-9%,11%,12%[46.1 µM],x,x,2%,0%
CN(C)CCC=C1c2ccccc2C=Cc2ccccc21,-2%&2%&-5%&0%,-26%&2%,8.2µM*,6.5µM*,-3.0%&-7.9%&4.9%&-5.1%,-9%&-3%,x,-11%
O=C(CCC1CCCN(Cc2ccc3c(c2)OCCO3)C1)NCc1ccccc1F (configuration not stated),x,-8%,x,-1%,x,-1%,2%,0%
O=C(N/N=C/c1cccs1)c1[nH]ncc1Br,x,38%[activator],x,x,x,10%,-4%,-17%
CCC(CCC(=O)Nc1cccc([N+](=O)[O-])c1)C(=O)O (configuration not stated),x,8%,5%[46.1 µM],3%[46.1 µM],x,5%,1%,-5%
COCCn1cnc2c1c(=O)n(Cc1ccc(C#N)cc1)c(=O)n2Cc1ccccc1,x,1%,-16%[46.1 µM],u,x,-1%,-1%,2%

Assay outcomes from PubChem BioAssay.
